Screens as filed in PubChem.
Calb biofilm kill: clotrimazole potentiators killing C. albicans biofilm, primary screen, 4-compound mixtures; C. albicans biofilm persisters + clotrimazole, fluorescence viability; primary screen in compound mixtures of four per well; 0.02% of 120,000 active; inhibition, % at 7.6 µM; AID 1242, 2008;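 active = inhibition above 30.3% in the primary screen of four-compound pools, then above 30% when the compound was retested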;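 note: compounds exposed to preformed 24 h biofilms for 48 h; the number belongs to the whole pool; some results filed as inactive read as strong as hits; inactives centre near 12; 0% = biofilm with clotrimazole alone and 100% = kill control; retested singly at about 60 µM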
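System: C. albicans CAF4-2 wild-type biofilms; Medium: RPMI/MOPS medium, pH 7.0; Reagent: Clotrimazole, 50 µg/mL; Times: biofilm formation 24 h, compound exposure 48 h, 37 °C; Detection: 2-h Alamar Blue fluorescence, 535/590 nm excitation/emission; Evaluation: percent inhibition of biofilm viability.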
Active calls of the source: *; & = joins results of further samples. Some of the compounds tested, so the mix of outcomes need not match the whole.

SMILES | Calb biofilm kill
CCCOc1ccc(-c2nn(-c3ccccc3)cc2/C=C2\SC(N)=NC2=O)cc1C | 7
Cc1cccc(N2CCN(C(=S)NCc3ccco3)CC2)c1C | -4
N#Cc1c(NC(=O)CSc2nc3ccccc3s2)sc2c1CCCC2 | 16
CCCCNC(=O)Nc1c(C)cc(SC#N)cc1C | 12
Nc1nn(-c2ccccc2)c(N)c1N=Nc1ccc2c(c1)OCO2 | -9
Cc1ccc(-c2cc(C(=O)N3CCCc4ccccc43)no2)cc1 | 16
CC(=O)N1N=C(c2ccc3ccccc3c2)OC12CCCC2 | 2
CC/C(=N\NC(=S)Nc1cccc(C)c1)c1ccccc1 | 13
CC(=O)Nc1ccc(NC(=O)c2cc(-n3cnnc3)ccc2Cl)cc1 | 16
O=C(CCNc1n[nH]c(=O)[nH]c1=O)N/N=C/c1ccc(Cl)cc1 | 7
CCOC(=O)c1csc(NC(=O)c2ccc(S(=O)(=O)N(CC)CC)cc2)n1 | 6
Cc1cc(-c2nnc(SCC(=O)Nc3ccc(C(F)(F)F)cc3)n2C)no1 | 5
O=C(Nc1ccc(Cl)c(S(=O)(=O)Nc2ccccc2Cl)c1)c1cccs1 | 10
CCOC(=O)c1nnn(-c2nonc2N)c1-c1ccc(Cl)cc1 | 5
COCCCNC(=O)c1cc(=O)n(Cc2ccc(Cl)cc2)c2ccccc12 | 7
Cc1[nH]n(C)c(=O)c1[N+](=O)[O-] | 6
O=C(NCCSc1c[nH]c2ccccc12)c1c(F)cccc1F | 6
C/C(=N\NC(=O)c1cccnc1)c1ccc(-c2ccccc2)cc1 | 12
C=CCn1c(N(C)C)nc2c1c(=O)[nH]c(=O)n2C | 7
Cc1cc(CNC(=O)[C@H]2C[C@@H]2[C@H](NP(=O)(c2ccccc2)c2ccccc2)c2ccccc2)nn1C | 15
COc1ccccc1-n1c(COc2ccccc2-c2ccccc2)nnc1SCC(=O)c1c(N)n(C)c(=O)n(C)c1=O | 12
CCc1[nH]nc2c1C(C(C)C)C(C#N)=C(N)O2 (stereo unspecified) | 12
CC(C)(C#CC(O)(c1ccccc1)c1ccccc1)N1CCCC1 | -4
CC(Sc1ccc(S(=O)(=O)N2CCOCC2)cc1[N+](=O)[O-])C(=O)O (stereo unspecified) | -4
CC(c1ccc(C(C)(C)C)cc1)S(=O)CC(O)CO (stereo unspecified) | 7

Copied from above for reference:
SMILES | Calb biofilm kill
CCc1[nH]nc2c1C(C(C)C)C(C#N)=C(N)O2 (stereo unspecified) | 12
CC(C)(C#CC(O)(c1ccccc1)c1ccccc1)N1CCCC1 | -4
CC(Sc1ccc(S(=O)(=O)N2CCOCC2)cc1[N+](=O)[O-])C(=O)O (stereo unspecified) | -4
CC(c1ccc(C(C)(C)C)cc1)S(=O)CC(O)CO (stereo unspecified) | 7

Later entries
SMILES | Calb biofilm kill
COC(=O)CN1C(c2cccc(Cl)c2)=Nc2ccc(Cl)cc2C1c1ccccc1 (stereo unspecified) | 8
Cc1nn(-c2ccccc2)nc1C(=O)Nc1nnc(C(F)(F)F)s1 | 5
Cc1cc(C)n(CCC(=O)N=Nc2c(O)[nH]c3ccccc23)n1 | 20
O=C1/C(=C/c2ccncc2)Oc2cc(OS(=O)(=O)c3ccccc3)ccc21 | 19
O=C(NNc1ccc(-c2csnn2)cc1)c1cc(Cl)cc(Cl)c1 | 19
O=S(=O)(Nn1cnnc1)c1ccc(F)cc1 | 3
CC(=O)NCCC(=O)Nc1nc(-c2ccccc2Cl)cs1 | 19
NC(=NCCc1ccccc1)NS(=O)(=O)c1ccc(F)cc1 | 12
COc1ccc(NC(C)=O)cc1C#N | 6
C=CCNC(=O)COC(=O)c1ccccc1C(=O)N(C)C1CCCCC1 | -4
O=C(O)c1ccc(Cn2nnc3sc4c(c3c2=O)CCCC4)cc1 | 15
O=C(Cn1cnc2ccccc21)N/N=C/C(Br)=C/c1ccccc1 | 8
Cc1cccc(-n2c(O)c(C=NC3CCS(=O)(=O)C3)c3ccccc3c2=O)c1C (stereo unspecified) | 4
CCc1ccc2c(c1)C1(NN=C(c3ccc(C)cc3)S1)C(=O)N2 (stereo unspecified) | 14
CC1=C(C)Cc2c(OC(=O)c3ccccc3)ccc(OC(=O)c3ccccc3)c2C1 | 16
COc1ccc(/C=C/C(=O)Nc2cc(F)ccc2C)cc1S(=O)(=O)N1CCOCC1 | 11
CCN(CC)S(=O)(=O)c1ccc(N2CCCCC2)c(NC(=O)/C=C/c2cc(OC)c(OC)c(OC)c2)c1 | -4
CCN(CC)CCCNCC(=O)Nc1ccc(OC)c(Cl)c1 | 9
COc1ccc2nc(NC(=O)c3sc4nc(C)cc(C)c4c3N)sc2c1 | 14
Cc1ccc(S(=O)(=O)N2CCOCC2)cc1C(=O)Nc1cccc(S(=O)(=O)N2CCCC2)c1 | 18
Cc1nc(-c2cccc3ccccc23)ccc1C(=O)O | 12
COc1ccc(CC(NC(C)=O)C(=O)NC2CCN(c3nc(C)cc(C)c3C#N)CC2)cc1OC (stereo unspecified) | 2
Cc1ccc(C(=O)c2ccccc2C(=O)OCC(=O)NCC2CCCO2)cc1 (stereo unspecified) | 5
Cc1nn2c(nc1=O)NNC2(C)C(C)(C)C (stereo unspecified) | 5
Cc1nc2ccccc2c(=O)n1N(c1ccccc1)c1ccccc1 | -8

Look-ups from above.
Value for `CCc1ccc2c(c1)C1(NN=C(c3ccc(C)cc3)S1)C(=O)N2` (stereo unspecified) under Calb biofilm kill: 14
Value for `N#Cc1c(NC(=O)CSc2nc3ccccc3s2)sc2c1CCCC2` under Calb biofilm kill: 16

Fetched by structure from the entries so far:
SMILES | Calb biofilm kill
N#Cc1c(NC(=O)CSc2nc3ccccc3s2)sc2c1CCCC2 | 16
Cc1cccc(-n2c(O)c(C=NC3CCS(=O)(=O)C3)c3ccccc3c2=O)c1C (stereo unspecified) | 4
CC(C)(C#CC(O)(c1ccccc1)c1ccccc1)N1CCCC1 | -4
O=C1/C(=C/c2ccncc2)Oc2cc(OS(=O)(=O)c3ccccc3)ccc21 | 19
O=C(O)c1ccc(Cn2nnc3sc4c(c3c2=O)CCCC4)cc1 | 15
Cc1nc(-c2cccc3ccccc23)ccc1C(=O)O | 12

Additional compounds
SMILES | Calb biofilm kill
Cc1ccc(C(=O)Nc2nc(=O)[nH]s2)cc1 | 22&12
O=C(CN1C(=O)CC(c2ccccc2)S(=O)(=O)c2ccccc21)NC1CCCC1 (stereo unspecified) | 14
O=C(Cn1cc([N+](=O)[O-])cn1)NCCc1nc2ccccc2[nH]1 | 13
Oc1ccccc1N1CCN(CC(O)COCc2ccccc2Cl)CC1 (stereo unspecified) | 11
COc1ccccc1N(C)S(=O)(=O)c1ccc(C(=O)OCC(N)=O)cc1 | 10
CCCC1Cc2c(sc(NC(=S)NC(=O)c3ccccc3)c2C#N)CO1 (stereo unspecified) | 6
COc1cc(OC)c(OC)cc1CN1CCN(Cc2ccc(SC)cc2)CC1 | 2
Cc1ccc(S(=O)(=O)NCCc2nnc3ccc(SCC(=O)Nc4nc5ccccc5s4)nn23)cc1 | 10
COc1ccc2c(c1)N(S(=O)(=O)c1ccccc1)CCC2=O | 7
COc1ccc(CNC(=O)COC(=O)Cc2ccc(Cl)cc2Cl)cc1 | 10
CC(C)(C)c1ccc(C(=O)NNc2cc(N3CCOCC3)nc(N3CCOCC3)n2)cc1 | 8
CCCCNC(=S)N1CCN(C(c2ccccc2)c2ccccc2)CC1 | -2
CC(=O)N1c2ccccc2NC2=C(C(=O)CC(C)(C)C2)C1c1cccn1C (stereo unspecified) | 8
O=C(Cn1nc(-c2cccc([N+](=O)[O-])c2)c2ccccc2c1=O)NCC1CCCO1 (stereo unspecified) | 8
COCCCNC(=O)c1ccc([N+](=O)[O-])cc1 | 13
O=C(COc1ccc(C(=S)N2CCOCC2)cc1)Nc1ccccc1C(F)(F)F | 10
CCCc1nc2sc3c(=O)n(N)cnc3c2c2c1COC(C)(C)C2 | 15
CS(=O)(=O)N1CCC(C(=O)Nc2ccc(Cl)c(Cl)c2)CC1 | -16
O=C(CSc1nnc2ccc(-c3ccc(F)cc3)nn12)N1CCCC1 | 13
CC(CC(=O)Nc1ccc(F)c([N+](=O)[O-])c1)c1ccccc1 (stereo unspecified) | 6
CN(C)c1ccc(/C=N/NC(=O)c2ccnn2C)cc1 | 18
O=C(CCC1CCCN(C(=O)C2=CCCCC2)C1)N1CCN(c2ccccn2)CC1 (stereo unspecified) | 18
O=C(O)c1ccc(N/N=C/c2ccc(-c3ccccc3Cl)o2)cc1 | 31
Cn1c(SCC(=O)NC2CCCCC2)nnc1-c1ccc(N)cc1 | 22
CC1CCCN(C(=O)CSc2nnc(-c3ccncc3)n2C)C1 (stereo unspecified) | 34

In another format: results already given
structure	Calb biofilm kill
O=C(Cn1nc(-c2cccc([N+](=O)[O-])c2)c2ccccc2c1=O)NCC1CCCO1 (stereo unspecified)	8
COCCCNC(=O)c1ccc([N+](=O)[O-])cc1	13
O=C(COc1ccc(C(=S)N2CCOCC2)cc1)Nc1ccccc1C(F)(F)F	10
CCCc1nc2sc3c(=O)n(N)cnc3c2c2c1COC(C)(C)C2	15

Further compounds follow.
SMILES | Calb biofilm kill
O=C(Nc1nc2ccc(Cl)cc2s1)[C@@H]1CCCN1C(=O)c1cccs1 | -4
COc1ccc(C2C(C(C)=O)=C(O)C(=O)N2c2nc3ccccc3s2)cc1OC (stereo unspecified) | 8
Nn1cc(-c2ccccc2)nc1SCC(=O)NCC(F)(F)F | 14
N#Cc1cc(C(=O)c2cc(F)ccc2O)cn(-c2nccs2)c1=O | 8
CC(C)C(NS(=O)(=O)c1c(Cl)cccc1Cl)C(=O)OCC(=O)c1c[nH]c2ccccc12 (stereo unspecified) | 5
Cc1ccc(C(=O)Nc2ccnc(-c3cccnc3)n2)cc1 | -3
Cc1nn(Cc2ccc(F)cc2)c(C)c1NC(=O)c1cccnc1Cl | -1
Nc1cccc2[nH]c(C(F)(F)F)nc12 | -2
CCCCn1c(CCC)nc([N+](=O)[O-])c1Sc1ccc(Cl)cn1 | 2
Cc1ccc(Sc2c(O)c3ccccc3n(C)c2=O)cc1 | 9
O=C(NCCc1c[nH]c2ccccc12)C(=O)NCC(c1cccnc1)N1CCN(c2ccccc2)CC1 (stereo unspecified) | 20
O=C(NCc1ccccc1)C1=C[C@H](C2CCCCC2)C[C@H](OCc2ccc(CO)cc2)O1 | -1
CCOc1ccc(NC(=O)c2ccccc2NS(=O)(=O)c2ccc(F)cc2)c([N+](=O)[O-])c1 | 20
S=C1Nc2ccccc2Sc2ccc(Cl)cc21 | 0
COc1ccc(OC)c(Nc2nc(N)nc(CCl)n2)c1 | 12
CN(C)c1ccc(NC(=O)COC(=O)c2cc(Cl)ccc2[N+](=O)[O-])cc1 | 11
COc1ccc(C(=O)NC(=S)NNC(=O)CNC(=O)C2CCCCC2)cc1 | 11
C/C(=N\NC(=O)Cn1nc(C)c([N+](=O)[O-])c1C)c1ccco1 | 23
COc1ccc(Cl)cc1C(Nc1cccnc1)c1ccc2cccnc2c1O (stereo unspecified) | 7
CC(=O)O[C@@H]1C[C@H]2C(C)=C[C@H]3OC(=O)[C@@H](C)[C@H]3C[C@H]2[C@]1(C)O | 14
Cc1ccc(NC(=S)NC(=O)c2ccc(-c3ccc(Cl)cc3)o2)c(O)c1 | 9
Cc1cc(C)n(-c2ccc(C(=O)OCC(=O)NCc3ccc(Cl)cc3)cc2)n1 | 8
O=C(NC(=S)Nc1cccnc1Cl)c1ccco1 | 15
COc1ccc(-c2ccc(/C=N/NC(=O)c3cccnc3)o2)c([N+](=O)[O-])c1 | 13
Cc1noc(C)c1-c1nc(CSc2ccccc2)no1 | 22
(list continues)
SMILES | Calb biofilm kill
Cc1ccc(NC(=O)CSc2nnc(-c3ccncc3)o2)cc1C | 8
Cc1ccc(NC(=O)COC(=O)C2CSC3(C)CCC(=O)N23)cc1S(=O)(=O)N1CCOCC1 (stereo unspecified) | 6
COC(=O)CS(=O)(=O)c1ccsc1C(=O)Nc1ccc(F)c(F)c1 | 14
COc1ccc(N=C2SC(CC(=O)Nc3ccccc3F)C(=O)N2Cc2ccco2)cc1 (stereo unspecified) | 7
COc1ccc(-c2nc3c(c4nnc(SC(C)C(=O)Nc5ccc(C)cc5)n24)COC(C)(C)C3)cc1 (stereo unspecified) | 5
O=C(Cn1c(CO)nc2ccccc21)NCCc1ccccc1 | 2
CCN1CNC(=S)N(C(C)c2ccccc2)C1 (stereo unspecified) | 10
COc1ccc(NC(=O)Cn2nnc(C(=O)Nc3ccccc3C)c2N)cc1 | 9
O=c1[nH]c(SCc2ccccc2)nc2c1cnn2-c1ccc(F)cc1 | 5
Cc1c(NC(=O)C(C)OC(=O)c2cccc(S(=O)(=O)N(C)C)c2)c(=O)n(-c2ccccc2)n1C (stereo unspecified) | -6
CC1CCN(CCCNC(=O)c2cc3c(Cl)nc4ccccc4c3s2)CC1 | 16
O=C(CSc1n[nH]c(=O)[nH]c1=O)N/N=C/C=C/c1ccccc1 | 19
N#CC1=C(N)NC(SCC(=O)Nc2ccccc2)=C(C#N)C12CCCCC2 | -1
COc1ccc(NC(=O)COC(=O)CC23CC4CC(CC(C4)C2)C3)c([N+](=O)[O-])c1 | 14
O=C(NCCO)c1ccc2c3n(nc2c1)-c1ccccc1CO3 | -3
C/C(=N/NC(N)=S)c1ccc(Br)s1 | 21
COc1ccc(C(=O)NC2c3ccccc3-c3ccccc32)cc1 | 10
Cc1csc2ncnc(NNC(=O)c3ccc(Cl)cc3)c12 | 10
COc1ccc(CCNC(=O)C(=O)N2CCCC2)cc1OC | 5
